Screens (PubChem)
HCMV NEC inh = inhibitors of HCMV UL50-UL53 nuclear egress complex interaction. HTRF UL50-UL53 interaction, normalized percent inhibition. inhibition, % (concentration not given with the values). 190,000 tested, 0.15% active. AID 1918969;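 active = both replicates at 50% or more, plus weaker picks with an unusually low signal ratio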;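 note: stock transfer was 100 nL into about 20 µL; 0% = negative control wells and 100% = wells with untagged competitor protein; inactives centre near -12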
GIV Gai3 FP = blocks GIV peptide binding to rat Galpha-i3. Galpha-i3/FITC-GIV peptide fluorescence polarization, 90 min; stronger effect = lower value; scaled: aluminum fluoride 0%, vehicle 100%. percent of control (FP), % (test concentration not listed). P08753. 210,000 tested, 0.42% active;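 active = replicate mean at 85% of control or lower, very high polarization wells dropped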;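 note: wells of about 15 µL received 100 nL stock; the first replicate is given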
Target sequence (P08753 whole entry, looked up): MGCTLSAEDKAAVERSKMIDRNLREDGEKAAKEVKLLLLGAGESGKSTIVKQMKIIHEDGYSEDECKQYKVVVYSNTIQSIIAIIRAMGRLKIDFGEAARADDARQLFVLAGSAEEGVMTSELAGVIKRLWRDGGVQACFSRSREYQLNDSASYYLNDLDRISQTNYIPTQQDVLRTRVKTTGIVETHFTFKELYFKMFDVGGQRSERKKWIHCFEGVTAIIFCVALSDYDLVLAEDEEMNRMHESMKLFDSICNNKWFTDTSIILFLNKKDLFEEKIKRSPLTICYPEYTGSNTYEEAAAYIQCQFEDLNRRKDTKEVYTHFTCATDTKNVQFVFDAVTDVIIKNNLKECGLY
Sa growth 42C = S. aureus growth inhibition; AID 720641; relative growth, % (test concentration not listed); S. aureus RN4220 growth, OD600, 20 h, 42 °C; stronger effect = lower value; 170,000 tested, 0.53% active;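 active = growth at 42 °C up to 50% and 20 or more points under that at 30 °C, or under 10% at both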;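 note: 300 nL library stock went into each well; scaled to the means of positive and negative controls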
Sa growth 42C second temp = also measured in Sa growth 42C; calls as there; relative growth, %; measured here: growth at 30 °C;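 optical density after 20 h as mean of two plates; 100% = untreated growth and lower means inhibition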
Starred values were filed as active, the others as inactive; nt = not tested or not shown; & = joins results of further samples.

Order of results – GIV Gai3 FP	Sa growth 42C second temp	HCMV NEC inh	Sa growth 42C
1) Cc1c(C(=O)NC(C)CCc2ccccc2)oc2c1C(=O)CCC2 (stereo not given)
 : 95	63	-20	73
2) CCCCCCN(CCCCCC)C(=O)Cc1c(-c2ccc(F)cc2)[nH]c2ccccc12
 : 106	nt	-5&-28	nt
3) Cc1cccc(-c2noc(-c3ccc(NC4CCCC4)c([N+](=O)[O-])c3)n2)c1
 : 103	89	-21	106
4) O=C(Nc1ccc(-c2cn3ccsc3n2)cc1)c1ccc2c(=O)n3c(nc2c1)CCCCC3
 : nt	97	5	98
5) Cc1cc2oc(C(=O)N(Cc3ccc(N(C)C)cc3)CC3CCCO3)c(C)c2cc1C (stereo not given)
 : 102&106	83	-34&-17	95
6) CN1CCN(C(=O)c2ccc(N3CCNCC3)c(NS(=O)(=O)c3ccc(F)cc3)c2)CC1
 : 104	nt	-4	nt
7) Cc1ccccc1OC1C(=O)N(c2cccc(Cl)c2)C1c1ccc2c(c1)OCO2 (stereo not given)
 : 104	nt	-13	nt
8) COc1cccc2ccc(Cl)nc12
 : 103	82	nt	114
9) CC1(C)CC(=O)C/C(=N\Nc2n[nH]c(=O)[nH]c2=O)C1
 : nt	71	-46	77
10) Cc1ccc2nc(Nc3nccc(C)n3)nc(C)c2c1
 : nt	98	-5	126

More compounds follow:
Order of results – GIV Gai3 FP	Sa growth 42C second temp	HCMV NEC inh	Sa growth 42C
11) Cc1cc(C)c2c(c1)OCN(Cc1ccc(Cl)cc1)C2
 : 110	92	nt	74
12) Oc1ccccc1CNCC1CCCO1 (stereo not given)
 : nt	94	7	104
13) O=C1NCCCCC1NS(=O)(=O)c1cccs1 (stereo not given)
 : 100	95	3	95
14) NC(=O)c1ccc(Oc2ccc(Cl)cc2)nc1
 : 99	90	3	101
15) CSc1ccccc1NC(=O)CN(C)CC(=O)N1CCN(C(=O)c2ccco2)CC1
 : nt	86	-15	104
16) CCCN1CCN(c2cc(C(=O)O)c3cc(NC(=O)c4ccccc4Cl)ccc3n2)CC1
 : 103	nt	-24	nt
17) Cc1ccc(CCNC(=O)c2cc3c(s2)-c2c(C)cccc2OC3)cc1
 : 104	85	-6	102
18) COc1ccc(CNC(=O)CC2CCCCC2)cc1
 : nt	105	32	101
19) Cc1ccc(-n2ccc(=O)c(C(=O)Nc3c(C)n(C)n(-c4ccccc4)c3=O)n2)cc1
 : 102	nt	-30	nt
20) COc1ccccc1CCNC(=O)c1nccnc1C(=O)O
 : 106	90	-21	94

Later entries:
Order of results – GIV Gai3 FP	Sa growth 42C second temp	HCMV NEC inh	Sa growth 42C
21) COc1ccc(Cn2c(SCC#N)nc3ccc(N4CCOCC4)cc3c2=O)cc1
 : 103	65	nt	84
22) CCc1nn(CC(=O)NCCCN2CCC(Cc3ccccc3)CC2)c(=O)c2cc3occc3n12
 : 104	84	-4	77
23) CN(CCCNC(=O)c1cc2c(=O)n(C)c3ccccc3c2s1)Cc1ccccc1
 : 103	94	-42	110
24) Cc1c(Cl)cccc1Nc1nn2c(=O)c3ccc(C(=O)NCCC4=CCCCC4)cc3nc2s1
 : 102	96	nt	97
25) Cc1ccc(N2CCN(C(=S)c3ccc(N(C)C)cc3)CC2)cc1
 : 102	80	nt	104
26) O=C(NCCCN1CCN(c2ccccc2)CC1)c1cc2c(s1)-c1ccccc1OC2
 : 107	96	-29	110
27) O=C(NCCN1CCN(c2ccccc2F)CC1)C1CCCN(S(=O)(=O)c2cnc[nH]2)C1 (stereo not given)
 : 97	91	nt	101
28) Cc1nc(CC(=O)Nc2ccccc2)cs1
 : 103	nt	-13	nt
29) CC1(C)C(=O)N(CC(=O)Nc2cccc(Cl)c2)c2ccc(S(=O)(=O)N3CCCC3)cc21
 : 113	nt	-8	nt
30) O=S(=O)(/C=C/c1ccccc1)N1C=Cc2ccccc2C1c1c[nH]c2ccccc12 (stereo not given)
 : 99	80	nt	100

New compounds follow:
Order of results – GIV Gai3 FP	Sa growth 42C second temp	HCMV NEC inh	Sa growth 42C
31) CC(NC(=O)c1ccc2c(c1)N(Cc1ccc(Cl)cc1)C(=O)c1ccccc1S2(=O)=O)c1ccccc1 (stereo not given)
 : 104	99	-33	94
32) COc1ccc(CNC(=O)C(=O)NCC(c2cccnc2)N2CCN(c3ccccc3F)CC2)cc1 (stereo not given)
 : 105	52	-9	118
33) CC(=O)Nc1ccc(N2COc3ccc(Cl)cc3C2)cc1
 : 98	80	nt	113
34) O=C(CSc1nc2scc(-c3ccco3)c2c(=O)n1-c1ccccc1)Nc1ccccc1
 : nt	89	-18	100
35) COc1ccc(S(=O)(=O)N2CCC(C(=O)NC(c3nc4ccccc4[nH]3)C(C)C)CC2)cc1 (stereo not given)
 : nt	83	-11	104
36) Cc1nnc(SCCN2C(=O)c3ccccc3C2=O)[nH]c1=O
 : 103	100	-8	111
37) O=C(Cn1c(=O)cnc2ccccc21)NC(=O)NC1CCCCC1
 : nt	92	-17	105
38) NS(=O)(=O)c1ccc(CCNC(=O)C2(S(=O)(=O)c3ccc(Cl)cc3)CC2)cc1
 : 109	99	-39	90
39) CC(C)c1ccc(-c2csc3nc[nH]c(=O)c23)cc1
 : nt	93	16	100
40) O=c1[nH]ccn(-c2c(F)cccc2F)c1=O
 : 103	100	-5	101

(further entries)
Order of results – GIV Gai3 FP	Sa growth 42C second temp	HCMV NEC inh	Sa growth 42C
41) Cc1[nH]c2ccc(C(=O)NCC3CCCO3)cc2c1C (stereo not given)
 : nt	94	-24	103
42) O=C(NCc1ccco1)C1CCN(c2nc3ccccc3[nH]2)CC1
 : 99	83	nt	89
43) COc1ccc(Cn2c(C(=O)O)c(CNCc3ccc(C)o3)c3ccc(C)cc32)cc1
 : 106	90	nt	102
44) CCC(C(=O)N1CCN(c2ccc(OC)cc2)CC1)n1nc(C)n2c(cc3occc32)c1=O (stereo not given)
 : 107	80	-3	94
45) Cc1cc(C)cc(C(=O)NCCn2c(C(F)(F)F)nc3cccnc32)c1
 : 106	nt	-11	nt
46) Fc1ccc(-n2ncc3c(N4CCCCCC4)ncnc32)cc1
 : 99	96	nt	93
47) Cc1ccccc1OCc1nnc(SCc2cc(=O)c3ccccc3[nH]2)n1C
 : 104	96	nt	114
48) CC1(C)CC(=O)C2=C(C1)OC(N)=C(C#N)C2c1ccc(OCc2ccccc2)cc1 (stereo not given)
 : 100	nt	4	nt
49) COc1ccc(NC(=O)CSc2nnc(N)n2CC(=O)Nc2ccc(OC)cc2)cc1
 : 100	105	-5	108
50) Cn1c(=O)c2cc(Br)ccc2n(C)c1=O
 : 100	79	-23	90

New compounds follow.
Order of results – GIV Gai3 FP	Sa growth 42C second temp	HCMV NEC inh	Sa growth 42C
51) COC(=O)c1nnn(-c2nonc2N)c1CSc1ccccn1
 : 101	93	0	103
52) O=C(Nc1ccccc1)Nc1ccc(Oc2ncnc3cc(Cl)ccc23)nc1
 : 96	96	8	103
53) CCn1c(O)c(N=Nc2c(C)n(C)n(-c3ccccc3)c2=O)sc1=S
 : nt	19	-66	48
54) COc1ccc(CNC(=O)CCCOc2ccccc2)cc1
 : nt	94	-24	101
55) Cc1c(C(=O)NCc2ccncc2)cnn1-c1ccc(F)cc1
 : 100	79	-22	97
56) O=C(/C=C/c1cccs1)NCCN1C(=O)S/C(=C\c2cccs2)C1=O
 : nt	86	-14	88
57) O=C(Sc1ccc(Cl)cc1)c1ccno1
 : 106	0	-14	21
58) CNC(=S)N/N=C(\C)c1cccc(C(F)(F)F)c1
 : nt	87	-16	77
59) O=C(NCc1cccc(Br)c1)c1cnn(-c2ccc(F)cc2)c1-n1cccc1
 : 105	97	nt	110
60) COC(=O)c1ccc2c(=O)[nH]c(CSc3nnc(N)s3)nc2c1
 : nt	86	-31	70

More entries follow:
Order of results – GIV Gai3 FP	Sa growth 42C second temp	HCMV NEC inh	Sa growth 42C
61) CCC(C(=O)NCc1ccccc1OC)n1nc(C)n2c(cc3occc32)c1=O (stereo not given)
 : 101	86	-26	109
62) COc1ccc(C2SCC(=O)N2CCN2CCCCC2)cc1OC (stereo not given)
 : nt	92	8	96
63) CCC1CCC(C(=O)NC(C(=O)Nc2cccc(OC)c2)C(C)C)CC1 (stereo not given)
 : 109	100	-3	93
64) CC1=C(c2ccc(C)c(C)c2)S(=O)(=O)N=C1N1CCC(C(=O)NCC2CCCO2)CC1 (stereo not given)
 : 94	nt	-84	nt
65) COc1ccc(-c2cc(C(F)(F)F)c(C#N)c(SCC(=O)Nc3ccc(F)cc3)n2)cc1
 : 111	91	-15	95
66) CCOC(=O)c1ccc2c(c1)[C@@H]1C=CC[C@@H]1[C@H](c1cccnc1)N2
 : 103	65	-2	98
67) O=C(CSc1n[nH]c(-c2ccccc2)n1)N1CCCCC1
 : 107	89	nt	80
68) CCOc1ccc(N(CC(=O)Nc2cc(OC)ccc2OC)S(=O)(=O)c2ccc(Cl)cc2)cc1
 : 107	nt	-7	nt
69) CC1(C)C(=O)N(CC(=O)NC2CCCC2)c2ccc(S(=O)(=O)N3CCCC3)cc21
 : 103	nt	-30	nt
70) CNC(=O)N1CCCC(c2cccc(C(=O)NCc3ccc(Br)cc3)c2)C1 (stereo not given)
 : 110	nt	-10	nt

The list goes on:
Order of results – GIV Gai3 FP	Sa growth 42C second temp	HCMV NEC inh	Sa growth 42C
71) C=CCN1C(=O)C(CC(=O)Nc2ccc(C)cc2)SC1=Nc1cccc(O)c1 (stereo not given)
 : 110	58	-34	83
72) CC1CSc2ccc(S(=O)(=O)N3CCCC3)cc2N(CC(=O)NC2CCCCC2)C1=O (stereo not given)
 : 103	nt	-4	nt
73) CC1=C(c2ccc(C)c(C)c2)S(=O)(=O)N(CC(=O)NCc2ccccc2)C1=O
 : 99	nt	-49	nt
74) CCCCC1(C(=O)OC)NC(c2ccc(O)cc2)C2C(=O)N(c3ccccc3)C(=O)C21 (stereo not given)
 : 99	83	-15	94
75) Cc1nn(-c2ccc(F)cc2)c(C)c1S(=O)(=O)Nc1ccc(F)cc1F
 : 107	nt	-18	nt
76) CN1C(=O)COc2ccc(C(=O)c3ccccc3C(=O)O)cc21
 : nt	82	-10	115
77) COC(=O)c1ccc(C(=O)OC)c(NC(=O)c2cnn3c(C(F)F)cc(-c4ccc(C)cc4)nc23)c1
 : 99	86	-18	100
78) Cc1ccc(CNC(=O)c2ccc3c(c2)n(C)c(=O)c(=O)n3C)cc1
 : 167	77	nt	101
79) O=C(CCS(=O)(=O)Cc1ccccc1)Nc1cccnc1
 : 108	104	12	95
80) CC(C)CC(NC(N)=O)C(=O)NCc1ccccc1Cl (stereo not given)
 : nt	97	-16	104

Next part.
Order of results – GIV Gai3 FP	Sa growth 42C second temp	HCMV NEC inh	Sa growth 42C
81) CC1=C(C(=O)Nc2cc(C)cc(C)c2)C2(CCN(Cc3ccccc3)CC2)OC1=O
 : 103	nt	-16	nt
82) O=C(/C=C1\Sc2ccccc2NC1=O)NCCc1ccccc1
 : 103	86	nt	89
83) COc1ccccc1NC(=O)Cn1c(=O)n(-c2cccc(C(C)=O)c2)c(=O)c2c3c(sc21)CN(C(C)=O)CC3
 : 100	93	8	107
84) CCc1ccc(NC(=O)Cn2ccn(-c3ccc(C)c(C)c3)c(=O)c2=O)cc1
 : 103	90	6	103
85) COc1ccccc1NC(=O)NC(C)(C)CC(C)(C)C
 : 101	105	1	111
86) CCCCN1C(=O)C2(/C(=C(/O)c3ccc(OCC)cc3)C(=O)C(=O)N2CCOC)c2ccccc21 (stereo not given)
 : 108	90	-4	101
87) O=C(c1c[nH]c(-c2nc3ccccc3[nH]2)c1)c1ccccc1O
 : nt	91	-10	115
88) CCOc1ccccc1N(C)C(=O)c1cc(S(=O)(=O)NCc2ccc(C)cc2)ccc1F
 : 107	99	nt	107
89) COc1ccc(CNC(=O)CCCN2C(=O)C(c3ccccc3)Oc3cccnc32)cc1 (stereo not given)
 : 102	nt	-13	nt
90) O=C(Nc1ccccc1O)c1sc2ccccc2c1Cl
 : nt	88	-22	130

Next entries:
Order of results – GIV Gai3 FP	Sa growth 42C second temp	HCMV NEC inh	Sa growth 42C
91) CCOC(=O)c1cccc(NC(=O)CSc2ncc3c(n2)-c2ccccc2N(C)S3(=O)=O)c1
 : 105	89	nt	101
92) c1coc(-c2nccs2)c1
 : 105	86	-8	80
93) COc1cccc(C(=O)Nc2cccc(-c3cn4c(C)csc4n3)c2)c1OC
 : 101	63	nt	74
94) Nc1nc2c(o1)oc1nc(-c3ccccc3)cc(-c3ccccc3)c12
 : 105	102	-11	106
95) Cc1noc(/C=C/c2ccccc2F)c1S(=O)(=O)N1CCC(C(=O)NCc2ccco2)CC1
 : 107	90	nt	110
96) CCCCCn1cnc2scc(-c3ccc(C)cc3)c2c1=O
 : 100	nt	12	nt
